NOMO-1 viab = STK33 inhibitor candidate reducing NOMO-1 cell viability | inhibition, % (test concentration not listed) | NOMO-1 AML viability, CellTiter-Glo luminescence, 72 h | actives 7.5% (n = 37,000);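 active means most replicates above 80%; inconclusive means exactly half above 80%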;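 further: wells of about 30 µL received 25 nL stock; 0% = median of vehicle wells and 100% = reference inhibitor level; the first replicate is given; inactives centre near 10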
An asterisk follows results filed as active; ? = inconclusive.

SMILES	NOMO-1 viab
COc1ccc(S(=O)(=O)Nc2ccc3c(c2)C(=O)N([C@H](C)CO)C[C@H](C)[C@@H](CN(C)C(=O)Nc2c(C)noc2C)OCCCC[C@@H](C)O3)cc1	16
Cc1ccc(S(=O)(=O)Nc2ccc3c(c2)CC(=O)N([C@H](C)CO)C[C@@H](C)[C@@H](CN(C)S(=O)(=O)c2ccc(Cl)cc2)O3)cc1	41
C=CC1C(=C)CCC2C1CCC1C(C)(C(=O)O)CCCC21C (configuration not stated)	28
CCOc1ccc(-c2nnc(SCC(=O)O)n2-c2ccccc2)cc1	-9
C=CCNC1=C2C[C@@H](C)C[C@H](OC)[C@H](O)[C@@H](C)/C=C(\C)[C@H](OC(N)=O)[C@@H](OC)C=C/C=C(/C)C(=O)NC(=CC1=O)C2=O	119*
C[C@@H]1CN([C@@H](C)CO)C(=O)c2cccc(NC(=O)Nc3ccc4c(c3)OCO4)c2O[C@@H]1CN(C)CC1CC1	18
C[C@H]1CN([C@@H](C)CO)C(=O)Cc2cc(NS(=O)(=O)c3ccc(Cl)cc3)ccc2O[C@@H]1CN(C)Cc1ccc(Oc2ccccc2)cc1	72
NC(=O)NC1C(=O)c2ccccc2OC1c1ccccc1 (configuration not stated)	114*
CC(=O)c1cccc(NC(=O)C(C)NS(=O)(=O)c2ccc(Cl)cc2)c1 (configuration not stated)	15
COc1ccc(NC(=O)Nc2ccc3c(c2)CC(=O)N([C@@H](C)CO)C[C@H](C)[C@H](CN(C)S(=O)(=O)c2cn(C)cn2)O3)cc1	6
COC(=O)Cn1c2ccccc2c2nc(C)sc21	61
Cc1cc(C)cc(N(C(C)C(=O)Nc2cccc3ccccc23)S(C)(=O)=O)c1 (configuration not stated)	1
C[C@H](CO)N1C[C@H](C)[C@H](CN(C)S(=O)(=O)c2ccc(F)cc2)Oc2ccc(NS(=O)(=O)c3cn(C)cn3)cc2CC1=O	1
C[C@@H]1CN([C@@H](C)CO)C(=O)Cc2cc(NS(=O)(=O)c3cccs3)ccc2O[C@@H]1CN(C)CC1CC1	7
CC(C)NC(=O)N(C)C[C@@H]1Oc2c(NC(=O)c3cnccn3)cccc2C(=O)N([C@H](C)CO)C[C@@H]1C	-1
COc1ccccc1NC(=O)CC(C(=O)O)N(C)C (configuration not stated)	-15
Cc1ccc(S(=O)(=O)Nc2ccc3c(c2)C(=O)N([C@H](C)CO)C[C@H](C)[C@@H](CN(C)S(C)(=O)=O)OCCCC[C@@H](C)O3)cc1	-5
COc1ccc(NC(=O)Nc2cccc3c2O[C@@H](CN(C)S(=O)(=O)c2cccs2)[C@@H](C)CN([C@@H](C)CO)C3=O)cc1	20
C[C@H](CO)N1C[C@H](C)[C@H](CN(C)C(=O)NC2CCCCC2)Oc2c(NC(=O)Nc3ccc4c(c3)OCO4)cccc2C1=O	33
Cc1ccc(S(=O)(=O)N(C)C[C@@H]2Oc3ccc(NC(=O)CCN4CCOCC4)cc3CC(=O)N([C@H](C)CO)C[C@H]2C)cc1	1

Among those listed so far, 2 have a thiophene ring, fused or not.
SMILES	NOMO-1 viab
C[C@@H]1CN([C@@H](C)CO)C(=O)Cc2cc(NS(=O)(=O)c3cccs3)ccc2O[C@@H]1CN(C)CC1CC1	7
COc1ccc(NC(=O)Nc2cccc3c2O[C@@H](CN(C)S(=O)(=O)c2cccs2)[C@@H](C)CN([C@@H](C)CO)C3=O)cc1	20

Remaining list, next part
SMILES	NOMO-1 viab
O=C(COc1ccc2ccccc2c1Br)NCCN1CCOCC1	3
C[C@H]1CN([C@@H](C)CO)C(=O)c2cccc(N(C)C)c2O[C@@H]1CN(C)C(=O)Nc1cccc2ccccc12	4
C[C@@H]1CCCCO[C@@H](CN(C)S(=O)(=O)c2cn(C)cn2)[C@@H](C)CN([C@H](C)CO)C(=O)c2cc(NC(=O)C3CCCCC3)ccc2O1	20
CCc1oc2ccccc2c1C(=O)c1ccc(OC(C)=O)cc1	136*
COc1ccc(NC(=O)CN(c2cccc3ccccc23)S(C)(=O)=O)cc1OC	3
C[C@@H]1CN([C@H](C)CO)C(=O)Cc2cc(NC(=O)Cn3cnnn3)ccc2O[C@H]1CN(C)S(=O)(=O)c1ccc(Cl)cc1	12
C[C@H]1CN([C@@H](C)CO)C(=O)Cc2cc(NC(=O)NC3CCCCC3)ccc2O[C@@H]1CN(C)C(=O)NC1CCCCC1	9
Cc1cc(C(=O)Nc2cccc3c2O[C@H](CN(C)C)[C@@H](C)CN([C@@H](C)CO)C3=O)n(C)n1	18
COc1ccc(NC(=O)Nc2cccc3c2O[C@H](CN(C)Cc2ccc4c(c2)OCO4)[C@@H](C)CN([C@@H](C)CO)C3=O)cc1	57
Cc1ccc(S(=O)(=O)NC2c3cccc4cccc(c34)C2Sc2nnc(N)s2)cc1 (configuration not stated)	14

Sorted by formula weight (descending): four of the compounds above
SMILES	NOMO-1 viab
C[C@@H]1CCCCO[C@@H](CN(C)S(=O)(=O)c2cn(C)cn2)[C@@H](C)CN([C@H](C)CO)C(=O)c2cc(NC(=O)C3CCCCC3)ccc2O1	20
Cc1ccc(S(=O)(=O)NC2c3cccc4cccc(c34)C2Sc2nnc(N)s2)cc1 (configuration not stated)	14
Cc1cc(C(=O)Nc2cccc3c2O[C@H](CN(C)C)[C@@H](C)CN([C@@H](C)CO)C3=O)n(C)n1	18
O=C(COc1ccc2ccccc2c1Br)NCCN1CCOCC1	3

More records:
SMILES	NOMO-1 viab
C[C@@H]1CN([C@@H](C)CO)C(=O)c2cc(NC(=O)Cc3ccccc3)ccc2O[C@@H]1CN(C)Cc1ccncc1	-5
C[C@H]1CN([C@@H](C)CO)C(=O)c2cc(NS(=O)(=O)c3cn(C)cn3)ccc2O[C@H]1CN(C)Cc1ccncc1	-5
CC(=O)N1CCc2cc(NC(=S)Nc3ccccc3Cl)ccc21	18
C[C@H]1CN([C@@H](C)CO)C(=O)c2cc(NS(=O)(=O)c3ccccc3)ccc2O[C@@H]1CN(C)Cc1ccc(-c2ccccc2)cc1	87*
C[C@H]1CN([C@@H](C)CO)C(=O)Cc2cc(NS(=O)(=O)c3ccc(Cl)cc3)ccc2O[C@H]1CN(C)Cc1ccc2c(c1)OCO2	29
Cc1c(NC(=O)CNS(=O)(=O)c2ccc(Br)cc2)c(=O)n(-c2ccccc2)n1C	34
Cn1c(SCC(=O)Nc2ccc(Cl)cc2)nc2sc3c(c2c1=O)CCCC3	2
COc1ccc(NC(=O)CSc2nc(-c3cccs3)cc(C(F)(F)F)c2C#N)cc1	17
CNC[C@@H]1Oc2ccc(NC(=O)NC3CCCCC3)cc2CC(=O)N([C@@H](C)CO)C[C@@H]1C	10
CC(C)c1ccccc1NC(=O)CSc1nc(-c2ccccc2)cc(=O)[nH]1	11
Cc1ccc(NC(=O)CSc2nc3ccccc3s2)cc1Cl	23
COc1ccc(S(=O)(=O)N(C)C[C@@H]2Oc3ccc(NS(C)(=O)=O)cc3C(=O)N([C@@H](C)CO)C[C@@H]2C)cc1	-3
COc1ccccc1CNC(=O)c1cnn2c(C(F)F)cc(C)nc12	30
COc1ccc(S(=O)(=O)Nc2ccc3c(c2)C(=O)N([C@H](C)CO)C[C@H](C)[C@@H](CN(C)C(=O)Nc2ccccc2)O3)cc1	-2
Cc1ccccc1-c1nc(S(=O)(=O)c2ccc(Cl)cc2)c(NCC2CCCO2)o1 (configuration not stated)	28
C[C@H]1CN([C@@H](C)CO)C(=O)Cc2cc(NC(=O)Nc3ccc(F)cc3)ccc2O[C@H]1CN(C)C(=O)NC1CCCCC1	11
CC(=O)c1cn(CC(=O)NCc2cccnc2)c2ccccc12	15
C[C@H]1CN([C@@H](C)CO)C(=O)c2cccc(NC(=O)C3CCCCC3)c2O[C@H]1CN(C)S(=O)(=O)c1ccccc1	8
C[C@H](CO)N1C[C@H](C)[C@@H](CN(C)C(=O)Nc2ccc(F)cc2)Oc2ccc(NC(=O)Cc3ccccc3)cc2C1=O	16
C[C@@H]1CN([C@H](C)CO)C(=O)c2cc(NC(=O)Nc3ccc(C(F)(F)F)cc3)ccc2O[C@@H]1CN(C)S(=O)(=O)c1cccs1	?
Cc1cccc2c(C(=O)NCCN3CCOCC3)cc(-c3ccccc3Cl)nc12	-4
C[C@H](CO)N1C[C@H](C)[C@H](CN(C)Cc2ccc3c(c2)OCO3)Oc2ccc(NC(=O)Cc3cn(C)c4ccccc34)cc2CC1=O	19
O=c1cc(CSc2nc3ccccc3[nH]2)c2ccccc2[nH]1	-9
C[C@H](CO)N1C[C@H](C)[C@H](CN(C)Cc2ccc(C(=O)O)cc2)Oc2c(NC(=O)NC3CCCCC3)cccc2C1=O	-14
C[C@H]1CN([C@@H](C)CO)C(=O)c2cccc(NC(=O)Nc3cccc4ccccc34)c2O[C@H]1CN(C)Cc1ccncc1	15
COc1ccc(NC(=O)N(C)C[C@H]2Oc3c(NS(=O)(=O)c4ccc(F)cc4)cccc3C(=O)N([C@@H](C)CO)C[C@H]2C)cc1	20
Cc1cc([N+](=O)[O-])nn1CC(=O)NC(C)C	-8
CCOc1nc2c(c(-c3ccco3)c1C#N)Cc1ccccc1-2	3
C[C@@H]1CCCCO[C@@H](CN(C)C(=O)Nc2ccc(F)cc2)[C@@H](C)CN([C@H](C)CO)C(=O)c2cc(NS(C)(=O)=O)ccc2O1	4
O=S(=O)(Nc1ccc(O)c(Sc2nc3ccccc3s2)c1)c1cccc2cccnc12	4
COc1ccc(S(=O)(=O)N(C)C[C@H]2Oc3ccc(NC(=O)CCN4CCOCC4)cc3CC(=O)N([C@@H](C)CO)C[C@@H]2C)cc1	3
CC(NS(=O)(=O)c1ccc(Cl)cc1)C(=O)Nc1ccc(Oc2ccccc2)cc1 (configuration not stated)	37
Cc1noc(C)c1NC(=O)Nc1ccc2c(c1)C(=O)N([C@@H](C)CO)C[C@@H](C)[C@@H](CN(C)C(=O)Nc1ccc(F)cc1)O2	27
COc1ccc(S(=O)(=O)N(C)CC(N)=O)cc1Cl	0
C[C@@H]1CN([C@H](C)CO)C(=O)c2cc(NC(=O)Nc3ccc(C(F)(F)F)cc3)ccc2O[C@H]1CN(C)Cc1ccc(-c2ccccc2)cc1	126*
C[C@@H]1CN([C@@H](C)CO)C(=O)c2cc(NS(=O)(=O)c3cn(C)cn3)ccc2O[C@H]1CN(C)Cc1ccc2c(c1)OCO2	-13
Cc1csc2sc(COC(=O)Nc3ccccc3)c(C)c12	120*
C[C@H](CO)N1C[C@H](C)[C@@H](CN(C)S(C)(=O)=O)Oc2ccc(NC(=O)Nc3ccc(F)cc3)cc2C1=O	5
C[C@H](CO)N1C[C@H](C)[C@H](CN(C)Cc2ccc(-c3ccccc3)cc2)Oc2c(NC(=O)Nc3ccccc3)cccc2C1=O	57
Cc1cc(C(=O)Nc2cccc3c2O[C@H](CN(C)C(=O)Nc2ccc4c(c2)OCO4)[C@H](C)CN([C@@H](C)CO)C3=O)n(C)n1	22
CC1=CC(C)C2COC(c3ccccc3OCc3ccccc3)C1C2C (configuration not stated)	53
Cc1cccc(C(=O)O)c1NC(=O)C(C)Oc1ccc(Cl)cc1Cl (configuration not stated)	-5
COc1ccc(NC(=O)N(C)C[C@H]2Oc3ccc(NS(=O)(=O)c4cn(C)cn4)cc3CC(=O)N([C@H](C)CO)C[C@H]2C)cc1	28
COc1ccc(OC)c(S(=O)(=O)N(C)CC(=O)Nc2ccc(F)cc2)c1	-3
CC1(NC(=S)Nc2ccc(O)cc2)CCS(=O)(=O)C1 (configuration not stated)	20
C[C@@H]1CN([C@H](C)CO)C(=O)c2cc(NS(=O)(=O)c3ccc(F)cc3)ccc2O[C@H]1CN(C)S(=O)(=O)c1cccs1	36
CC(=O)c1cn(CC(=O)NCC2CCCO2)c2ccccc12 (configuration not stated)	24
CC(=O)Oc1ccc2occ(C(=O)CCN(C)C)c2c1	140*
CCOC(=O)c1ccc(N=C(N)SCc2ccc(Cl)cc2)cc1	21
C[C@@H]1CC[C@]2(C(=O)OC3OC(CO)C(OC4OC(CO)C(O)C(O)C4O)C(O)C3O)CC[C@]3(C)C(=CCC4[C@@]5(C)CC[C@H](O)[C@](C)(C(=O)O)C5CC[C@]43C)C2[C@]1(C)O (some centres not stated)	6
Following part
SMILES	NOMO-1 viab
CNC[C@@H]1Oc2ccc(NC(=O)CCC(F)(F)F)cc2C(=O)N([C@H](C)CO)C[C@H]1C	4
COc1ccccc1-n1cc(C(=O)NCC(=O)NCC2COc3ccccc3O2)c2ccccc2c1=O (configuration not stated)	-20
CC(=O)Nc1ccc(C(=O)CSc2nnc(-c3ccncc3)o2)cc1	22
COc1ccc(C(C)(C)C)cc1NC(=S)Nc1ccc(S(=O)(=O)Nc2ncccn2)cc1	8
CCOC(=O)Cc1csc(NC(=O)c2sc3cccc(F)c3c2Cl)n1	-4
CCOC(=O)C1=C(c2ccccc2)NC(=S)NC1CC (configuration not stated)	32
COc1cc(C2C3=C(CCCC3=O)Nc3[nH]c(=O)[nH]c(=O)c32)cc(OC)c1OC (configuration not stated)	22
O=C(Cn1nnc(-c2cc(C(F)(F)F)cc(C(F)(F)F)c2)n1)c1ccc(Cl)cc1	19
Cc1ccc(N(CC(=O)Nc2cc(Cl)ccc2Cl)S(C)(=O)=O)cc1C	4

For convenience, 4 of the compounds above:
SMILES	NOMO-1 viab
CNC[C@@H]1Oc2ccc(NC(=O)CCC(F)(F)F)cc2C(=O)N([C@H](C)CO)C[C@H]1C	4
COc1ccccc1-n1cc(C(=O)NCC(=O)NCC2COc3ccccc3O2)c2ccccc2c1=O (configuration not stated)	-20
CC(=O)Nc1ccc(C(=O)CSc2nnc(-c3ccncc3)o2)cc1	22
COc1ccc(C(C)(C)C)cc1NC(=S)Nc1ccc(S(=O)(=O)Nc2ncccn2)cc1	8

Screening data from PubChem BioAssay.

A portion of the library; rates above refer to the full screens.
